Mtb growth – Confirmatory growth inhibition assay against Mycobacterium tuberculosis H37Rv, potency (AID 1949) | most inactive calls were filed without a number and no value below 0 was filed | one-dose inhibition, % at 10 µg/mL; IC50 in µg/mL for titrated hits | hit rate 1.6% among 100,000;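 active = confirmed in a dose series; inconclusive = about 50% or more but not retested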;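 also: bacteria grown 7 days with compound before Alamar blue readout; 0% = untreated bacteria and 100% = reference antibiotic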
* hit, by the source's call; i = inactive; ? = inconclusive. Some of the compounds tested; count on the stated rates, not on these rows.

item | SMILES | Mtb growth
1 | COc1nc(C)ccc1-c1noc(-c2ccccc2Cl)n1 | i
2 | CC(=O)c1ccc(COC(=O)c2ccccc2NC(=O)C(C)C)cc1 | 2.4%
3 | Cc1ccc(SCC(=O)N2CCN(c3cc(Cl)ccc3C)CC2)cc1 | 26.5%
4 | COc1ccc(CCNC(=S)N2CCN(C(=O)c3sc4cc([N+](=O)[O-])ccc4c3Cl)CC2)cc1OC | i
5 | CC1(C)NC(=O)N(CCOc2ccc3c(c2)CCC3)C1=O | 1.6%
6 | CC(Oc1ccc(Cl)cc1Cl)C(=O)O/N=C(\N)c1cccnc1 (stereo not given) | i
7 | Cc1ccc(N2CCN(C(=S)Nc3ccc(Br)cc3Cl)CC2C)cc1 (stereo not given) | i
8 | O=C(CN(c1cccc(Cl)c1)S(=O)(=O)c1ccc(Cl)cc1)NCc1ccncc1 | i
9 | O=C(CSc1ccccn1)Nc1nc(-c2ccccc2)c(-c2ccccc2)o1 | 34.5%
10 | COC(=O)CSc1nnnn1-c1ccc(F)cc1 | i

A different layout for some results above:
3: Cc1ccc(SCC(=O)N2CCN(c3cc(Cl)ccc3C)CC2)cc1
  Mtb growth = 26.5%

8: O=C(CN(c1cccc(Cl)c1)S(=O)(=O)c1ccc(Cl)cc1)NCc1ccncc1
  Mtb growth = i

7: Cc1ccc(N2CCN(C(=S)Nc3ccc(Br)cc3Cl)CC2C)cc1 (stereo not given)
  Mtb growth = i

(more compounds)
item | SMILES | Mtb growth
11 | CCNC(=O)c1cc(Br)ccc1Cl | i
12 | O=C(COc1ccc(S(=O)(=O)N2CCCCC2)cc1)NC1CCCCC1 | 2.5%
13 | O=C(Cc1ccccc1)Nc1ccc(I)cn1 | 4.1%
14 | CCOC(=O)c1sc(NC(=O)CCCOc2cc(C)ccc2C)nc1C | i
15 | O=C(CN(Cc1ccc(Cl)cc1)S(=O)(=O)c1ccc(Cl)cc1)Nc1cccc([N+](=O)[O-])c1 | i
16 | Cc1cccc(Cc2cnc(NC(=O)COc3ccccc3C)s2)c1 | i
17 | CC1(C)CC2CC(C)(CN2c2ncnc(N)c2[N+](=O)[O-])C1 (stereo not given) | i
18 | COc1cccc(OC)c1OCCCOc1ccc(C)cc1Cl | 6.5%
19 | C=CCNCCOc1ccc(C)cc1Br | i
20 | Cc1ccc(OCc2ccccc2C(=O)Nc2nccs2)cc1 | i
21 | CCOC(=O)c1cccc(NC(=O)OCc2ccccc2)c1 | i
22 | COC1Cc2ccccc2N(C(N)=O)c2ccccc21 (stereo not given) | i
23 | O=C(Nc1ccccc1N1CCCCC1)c1sc2ccccc2c1Cl | 23.3%
24 | CCc1ccc(OCCCCN2CCCC2)cc1 | i
25 | O=C(Nc1cccc(C(F)(F)F)c1)Nc1ncn(Cc2ccccc2Cl)n1 | i
26 | Cc1sc2nc(SCC(=O)Nc3ccc(S(=O)(=O)NCCO)cc3)[nH]c(=O)c2c1C | 2.7%
27 | CCOc1ccc2c(=O)c(N3C(=O)c4ccccc4C3=O)c(C)oc2c1C | i
28 | CCN(CC)S(=O)(=O)c1cc(Br)c(C)cc1C | 0.5%
29 | N/C(Cc1cccc2ccccc12)=N\OC(=O)CC1CCCCC1 | i
30 | O=C(Nc1cccc2ccccc12)C1C(c2ccccc2)=C1c1ccccc1 | 0.9%
31 | COc1ccc(CNC(=O)C2CC(=O)N=C(N)S2)cc1 (stereo not given) | i
32 | COc1ccc(CN2CCN(C(=O)c3cccnc3)CC2)c(OC)c1 | i
33 | CC(C)CCN1C(=O)c2ccc(C(=O)NCc3ccco3)cc2C1=O | i
34 | CC(CNC(=O)C(C)C)NC(=O)C(C)C (stereo not given) | i
35 | CCC(OC(C)=O)c1ccc(OC(C)=O)c(OC)c1 (stereo not given) | 1.43µg/mL*
36 | O=C(c1ccco1)N1CCN(C(=S)Nc2ccc(F)c(Cl)c2)CC1 | i
37 | C=CCNCc1cc(Cl)ccc1OCC | 4.3%
38 | CCN(CC)S(=O)(=O)c1cccc2cccnc12 | 2.7%
39 | OC(COc1ccc(I)cc1)Cn1nnc2ccccc21 (stereo not given) | 27.0%
40 | Cc1cc(C)c2c(=O)[nH]c(SCC(=O)NCc3ccccc3)nc2n1 | i
41 | Cc1cc(C)nc(Nc2n[nH]c(-c3ccccc3Br)n2)n1 | i
42 | O=C(CSCc1c(Cl)cccc1Cl)Nc1ccc2c(c1)OCCO2 | i
43 | Oc1ccc(CNc2cccc(Br)c2)c2cccnc12 | i
44 | COc1ccc(-c2cc(C(F)(F)F)nc(SCC(=O)NCC3CCCO3)n2)cc1OC (stereo not given) | i
45 | CCn1cc2c(c1-c1ccc(OC)cc1)c(=O)n(C)c(=O)n2C | i
46 | CC12CCC(C(=O)O)(c3nc4cc(Cl)c(Cl)cc4nc31)C2(C)C (stereo not given) | i
47 | Cc1ccc(S(=O)(=O)N(CC(N)=O)c2ccc(Cl)c(Cl)c2)cc1 | i
48 | c1cncc(CNCc2cccc3ccccc23)c1 | i
49 | O=C(Cn1cnc2ccccc2c1=O)Nc1nnc(SCc2ccccc2)s1 | i
50 | CCc1ccc(C2C(C(=O)OC)=CNC=C2C(=O)OC)cc1 | 2.0%
51 | CCN(CC#CCC(C)OCCC#N)c1ccccc1 (stereo not given) | 0.1%
52 | Cc1cccc(OCC(=O)Nc2ccc(N3CCN(Cc4ccccc4)CC3)cc2)c1 | i
53 | Cc1cccc(CN(CC(=O)NC2CCCCC2)S(=O)(=O)c2ccc(Cl)cc2)c1 | i
54 | Cc1ccc([N+](=O)[O-])cc1NC(=O)C(C)Sc1ccc(Cl)cc1 (stereo not given) | i
55 | O=C(Cc1ccc(Cl)cc1)Nc1ccccc1NC(=O)Cc1ccc(Cl)cc1 | i
56 | O=C(Nc1ccc(I)cc1)c1ccccc1Cl | 2.4%
57 | Nc1cc(C(=O)O)ccc1N1CCCCCC1 | i
58 | Cc1cccc(NC(=O)CSc2ccc3ccccc3n2)c1 | 5.1%
59 | Cc1cccc(NC(=O)CSc2ccc(Cl)cc2)c1C | i
60 | CCOc1ccc(C(=O)NCCCc2ccccc2)cc1 | i

Next part
item | SMILES | Mtb growth
61 | Cc1ccc(NC(=S)Nc2ccc(Br)cc2)cc1 | 17.4%
62 | S=c1[nH]nc(-c2cc(-c3ccsc3)n[nH]2)n1-c1cccc2ccccc12 | i
63 | Cc1onc(-c2ccccc2)c1C(=O)Nc1sc2c(c1C(N)=O)CCCCCC2 | i
64 | CC(C)(C)c1ccc(OCC(=O)NCc2ccc3c(c2)OCO3)cc1 | i
65 | COc1ccc(NC(=O)NCCc2ccc(F)cc2)cc1 | i
66 | CCOC(=O)C(C)Sc1nc2c(c(-c3cccs3)c1C#N)CCCC2 (stereo not given) | 30.4%
67 | CN(C)c1ccc(C(=O)NNC(=S)Nc2ccc(F)cc2)cc1 | i
68 | CCOc1ccccc1C(=O)Nc1cccc(NC(C)=O)c1 | i
69 | O=C(Cc1ccc(Cl)cc1)NC(=S)Nc1ccccc1N1CCOCC1 | i
70 | Cc1ccc(C(=O)Oc2ccc(N3C(=O)CCC3=O)c(C)c2)cc1 | i
71 | COc1ccc(-c2n[nH]c(C)c2-c2ccccc2)c(O)c1 | i
72 | O=C(COc1ccc([N+](=O)[O-])cc1)Oc1ccc(Br)c2ccccc12 | 5.6%
73 | Cc1cc(N2CCCC2=O)cc(C)c1S(N)(=O)=O | i
74 | COc1ccc(/C=N\N2CCN(C(c3ccccc3)c3ccccc3)CC2)cc1OC | i
75 | Clc1cccc(OCCOCCN2CCNCC2)c1Cl | i
76 | Cc1ccc2c(Cl)c(C(=O)Nc3ccncc3)sc2c1 | 23.6%
77 | COc1cc(CNc2cccc(C)c2)ccc1OCc1ccccc1Cl | i
78 | Cc1sc(NC(=O)c2cc3ccccc3oc2=O)c(C(=O)OC(C)C)c1C | 0.66µg/mL*
79 | O=C(NC(=S)Nc1ccc(I)cn1)c1ccc(Cl)cc1Cl | i
80 | COc1ccc(S(=O)(=O)Nc2ccc3ccccc3c2)cc1C | i
81 | O=C(Cc1cccc2ccccc12)NCCSc1ccccc1 | 4.2%
82 | CC(Oc1ccc2c(c1)CCC2)C(=O)NNC(=S)NCC1CCCO1 (stereo not given) | i
83 | CCC1=NN(C(=O)C2CCCCC2)C(O)(C(F)(F)F)C1 (stereo not given) | i
84 | CCOC(=O)c1cnn2c(C(F)(F)F)cc(C)nc12 | i
85 | COc1ccccc1-c1nnc(SCc2ccccc2F)n1-c1ccccc1 | 3.8%
86 | COc1ccc(-c2noc(-c3ccccc3F)n2)cc1OC | i
87 | O=C(NC12CC3CC(CC(C3)C1)C2)C1CC(=O)N(c2ccccc2)C1 (stereo not given) | i
88 | O=C1c2ccccc2C(=O)N1CCc1nc2ccccc2c(=O)n1-c1nccs1 | i
89 | CC(C)CNC(=O)c1cc(S(=O)(=O)N2CCCC2)c(Cl)cc1N1CCCC1 | i
90 | CCOC(=O)c1cnc2ccc(OC)cc2c1Nc1ccc2c(c1)OCCO2 | 2.9µg/mL*
91 | COc1cccc(C2CC(C(F)(F)F)n3ncc(C(=O)Nc4ccc(OC)c(OC)c4)c3N2)c1 (stereo not given) | 0.7%
92 | CCOC(=O)C1=CN(c2ccc(OCC)cc2)C=C(C(=O)OCC)C1c1cccs1 | 4.9%
93 | CC(=O)Nc1cccc(NC(=O)c2cccc(Cn3cc(Cl)cn3)c2)c1 | i
94 | CCN(CC)Cc1c(O)ccc2occ(C(=O)c3cc(OC)ccc3OC)c12 | 2.6%
95 | COc1ccc(CC(=O)O/N=C(\N)c2ccccc2)cc1 | i
96 | O=C(Nc1cccc(NC(=O)c2cccs2)c1)c1ccc2c(c1)OCCO2 | i
97 | COc1ccccc1CNc1ccc(N2CCCCC2)cc1 | i
98 | CCC(c1nc2ccccc2c(=O)n1-c1ccccn1)N1C(=O)c2ccccc2C1=O (stereo not given) | i
99 | O=C(CN(c1ccccc1)S(=O)(=O)c1ccc(Cl)cc1)N1CCC(Cc2ccccc2)CC1 | 1.8%
100 | COc1cc(C(=O)Oc2ccc(NC3=NS(=O)(=O)c4ccccc43)cc2)cc(OC)c1OC | i
101 | O=C(COc1ccc(Cl)cc1Cl)NC(=S)Nc1ccccc1I | i
102 | Cc1ccc(C)c(NC(=O)CSc2nnc(NC(=O)c3ccccc3Br)s2)c1 | i
103 | CC1CC(C)CN(S(=O)(=O)c2cccc([N+](=O)[O-])c2)C1 (stereo not given) | i
104 | N#Cc1c(C(F)(F)F)cc(-c2ccc(Cl)c(Cl)c2)nc1SCCN1CCOCC1 | 2.0%
105 | COc1cccc(OC)c1OCCOc1ccc(C)cc1Cl | 6.6%
106 | Cc1onc(-c2c(Cl)cccc2Cl)c1C(=O)N1CCN(c2ccc(Cl)cc2)CC1 | 3.6%
107 | O=C(Nc1ccc2c(c1)Cc1ccccc1-2)c1ccc(Br)o1 | i
108 | COc1ccc(OC)c(S(=O)(=O)NNC(=S)NC2CCCC2)c1 | i
109 | COc1cc(OC)c(C(=O)NCc2ccncc2)cc1OC | i
110 | CC(C)(C)c1cnc(NC(=O)c2ccccc2O)s1 | 1.06µg/mL*

Carrying on:
item | SMILES | Mtb growth
111 | Cc1ccc(-c2nc3sc4c(c3c(=O)[nH]2)CCCC4)s1 | i
112 | COC(=O)c1ccccc1NC(=S)NC(=O)c1c(F)c(F)c(OC)c(F)c1F | i
113 | CCC1C(C#N)=C(SC)NC2=C1C(=O)CC(C)(C)C2 (stereo not given) | i
114 | Cc1nc2c3c4c(sc3ncn2n1)CCCCC4 | i
115 | CCOc1ccc(NCc2c[nH]c3ccccc23)cc1 | 5.1%
116 | Cc1ccc(S(=O)(=O)N2CCN(Cc3cc(Br)ccc3O)CC2)cc1 | i
117 | COC(=O)c1cc(NC(=O)c2c(C)c(-c3ccc(OC)cc3)nc3ccccc23)cc(C(=O)OC)c1 | i
118 | O=S(=O)(c1ccc(Cl)cc1)N1CCN(C2CCCCC2)CC1 | i
119 | Cc1nnc(SCc2ccccc2)[nH]c1=O | i
120 | CCn1nc(C)c(N2C(=O)c3cccc4c(Br)ccc(c34)C2=O)c1C | i

Arranged by formula weight (falling): three of the compounds above
item | SMILES | Mtb growth
117 | COC(=O)c1cc(NC(=O)c2c(C)c(-c3ccc(OC)cc3)nc3ccccc23)cc(C(=O)OC)c1 | i
118 | O=S(=O)(c1ccc(Cl)cc1)N1CCN(C2CCCCC2)CC1 | i
119 | Cc1nnc(SCc2ccccc2)[nH]c1=O | i

Additional entries.
item | SMILES | Mtb growth
121 | COC(C(=O)NCc1ccc2c(c1)OCO2)c1ccccc1 (stereo not given) | i
122 | COc1ccc(CCNC(=O)CSc2ncnc3sc(C)c(C)c23)cc1OC | i
123 | O=C(c1ccc(Cl)c(S(=O)(=O)N2CCCCC2)c1)N1CCOCC1 | i
124 | CCc1nc(N)c(C#N)c(-c2ccc(C(C)(C)C)cc2)c1C | i
125 | CCOC(=O)c1c(NC(=O)c2cc(OC)c(OC)c(OC)c2)sc(C(=O)Nc2ccc(OC)cc2OC)c1C | 0.8%
126 | O=C(CSc1nc2ccccc2c(=O)n1Cc1ccco1)c1ccc(Cl)cc1 | i
127 | Cn1c(=O)c2cn3c4ccccc4nc(Cc4ccccc4)c3c2n(C)c1=O | i
128 | CS(=O)(=O)Nc1ccc(C(=O)NCc2ccccc2)cc1 | i
129 | CCOC(=O)c1sc(NC(=O)NC2CCCCC2)cc1C | 0.75µg/mL*
130 | COc1cccc(OCCNC(=O)c2cccc3ccccc23)c1 | 0.8%
131 | CC(C(=O)NC1=NCCS1)(C(F)(F)F)C(F)(F)F | 1.7%
132 | C=CCNC(=O)c1ccccc1NC(=O)CN(c1ccc(OC)c(Cl)c1)S(=O)(=O)c1ccc(C)cc1 | i
133 | CCOC(=O)C1=C(C)NC(=O)NC1c1ccc(-c2cccc(C(F)(F)F)c2)o1 (stereo not given) | i
134 | COc1ccc(CNc2ccc(I)cc2)c(OC)c1OC | i
135 | CCOc1ccccc1C(=O)Nc1ccc(Br)cc1C(=O)O | 3.8%
136 | Cc1ccsc1C1CC(=O)NC(SCC(N)=O)=C1C#N (stereo not given) | i
137 | Cn1c(-c2ccccc2Br)n[nH]c1=S | 1.6%
138 | Cc1nc(SCc2ccccc2)c([N+](=O)[O-])[nH]1 | i
139 | CCOc1ccc2nc(SCC(=O)Nc3ccc([N+](=O)[O-])cc3)[nH]c2c1 | ?
140 | Cc1nc(NC(=S)NC(=O)c2ccco2)ccc1I | i

Bioassay records: PubChem, Southern Research Institute
